# Screening results: PubChem, National Center for Advancing Translational Sciences (NCATS)
# LASV entry inh: blocks Lassa virus binding or cell entry; AID 720533; 4.1% of 18,000 active; Potency, µM (doses to about 49.2 µM), inactives show at the highest dose activity change, negative = inhibition, actives largely listed as inhibitors; Lassa virus pseudotyped entry inhibition, cell-based qHTS; control for the full effect not named in the record; many of its hits are not listed in these tables; active = well fitted inhibition curve with a large enough effect; inconclusive = small, poorly fitted or top-dose-only effect; inactive = no such curve, though single readings can be large or run the other way; tested in HEK293 cells; further: luciferase read-out
# MARV entry inh: inhibitors of Marburg virus binding or entry into cells | Marburg virus pseudotype entry/binding inhibition, cell-based; control for the full effect not named in the record; many of its hits are not listed in these tables | Potency, µM (top dose mostly 49.2 µM), for the others: at the highest dose activity change, negative = inhibition, actives largely listed as inhibitors | 6.5% of 18,000 active; active means well fitted inhibition curve with a large enough effect; inconclusive means small, poorly fitted or top-dose-only effect; inactive means no such curve, though single readings can be large or run the other way; tested in HEK293 cells; further: luciferase read-out
# * marks the source's active call; other numbers are inactive results; ? = inconclusive; . = not tested or not shown; & = joins results of further samples; [ ] = another dose, or the depositor's remark. On the % scale 0 is the no-effect control and ±100 the full control effect; potency means the concentration at half of the fitted maximal effect.
molecule	LASV entry inh	MARV entry inh
CC[C@H](C)[C@H](NC(=O)[C@H](CC(N)=O)NC(=O)[C@H](CCCCN)NC(=O)[C@H](Cc1ccccc1)NC(=O)[C@H](Cc1ccccc1)NC(=O)[C@H](Cc1cnc[nH]1)NC(=O)[C@@H](N)C(C)C)C(=O)N[C@H](C(=O)N[C@H](C(=O)N1CCC[C@H]1C(=O)N[C@@H](CCCN=C(N)N)C(=O)N[C@H](C(=O)N1CCC[C@H]1C(=O)O)[C@@H](C)O)[C@@H](C)O)C(C)C	2%	-7%
O=C(c1cccs1)N1C[C@@H](n2cc(C3CC3)nn2)[C@@H](O)C[C@@H]1c1ccccc1	24%	20%
O=C1[C@@H]2[C@H]3[C@H](O)[C@H](O)CC(=NOC[C@@H](O)COCc4ccco4)[C@H]3CC[C@H]2C(=O)N1C[C@@H]1CCCO1	-14%[8.59 µM]	4%[8.59 µM]
CC(C)c1ccc2c(N=Nc3ccc(S(N)(=O)=O)cc3)c(O)[nH]c2c1	23%	?
CC(=O)OCC[N+](C)(C)C	8%&-3%&-3%&-1%&1%	12%&20%&-8%&7%&12%
Cc1cccc(C2=N[C@@H](Cc3ccccc3)CO2)c1	20%	-10%
Cc1cnc(C(=O)N2CCOc3ccc(CN4CCCC(C(=O)c5cccnc5)C4)cc3C2)[nH]1 (stereo unspecified)	-5%	-14%
CC1OC(=O)C(C(C)C)NC(=O)C(C(C)C)OC(=O)C(C(C)C)NC(=O)C(C)OC(=O)C(C(C)C)NC(=O)C(C(C)C)OC(=O)C(C(C)C)NC(=O)C(C)OC(=O)C(C(C)C)NC(=O)C(C(C)C)OC(=O)C(C(C)C)NC1=O (stereo unspecified)	0.13µM*	89µM*
COc1cc(C)c(C(=O)Oc2cc(C)c(C(=O)O)c(O)c2C)c(OC)c1C	-10%	3%
C[C@H](NC(=O)[C@@H](N)Cc1ccc(O)cc1)C(=O)NCC(=O)N[C@H]1CSSC[C@@H](C(=O)O)NC(=O)[C@H](CO)NC(=O)[C@H]([C@@H](C)O)NC(=O)[C@H](Cc2ccccc2)NC(=O)[C@H]([C@@H](C)O)NC(=O)[C@H](CCCCN)NC(=O)[C@H](Cc2c[nH]c3ccccc23)NC(=O)[C@H](Cc2ccccc2)NC(=O)[C@H](Cc2ccccc2)NC(=O)[C@H](CC(N)=O)NC(=O)[C@H](CCCCN)NC1=O	-4%	-4%
CC(=O)Nc1ccccc1-c1nc(CNC(=O)c2cccc(F)c2)c(C)o1	-3%	-13%
Cc1cc(/C=C/c2ccc3cc(N(C)C)ccc3[n+]2C)c(C)n1-c1ccccc1	10µM*	?
Nc1ccc([As](=O)(O)O)cc1	4%&-21%	8%&3%
CN(C)c1ccnc(-c2cccc(NS(C)(=O)=O)c2)n1	-1%	25%
CCN1CCc2nc(N)oc2CC1	-13%	1%
O=C(c1cnn2cccnc12)N1CCOc2ccc(C(O)C(c3ccccc3)c3ccccc3)cc2C1 (stereo unspecified)	?	?
CN(C)CCCn1cc(C2=C(c3c[nH]c4ccccc34)C(=O)NC2=O)c2ccccc21	?	7.1µM*
CNCC(O)c1ccc(O)cc1 (stereo unspecified)	-11%[17.8 µM]	24%[17.8 µM]
Cc1cccc2cc(CN(C(=O)c3ccc(-c4ccc(F)cc4)cc3)C3CC3)c(N3CCC(O)CC3)nc12	?	-21%
COc1ccc(-c2coc3ccc(OC4OC(COC(C)=O)C(OC(C)=O)C(OC(C)=O)C4OC(C)=O)c(OC(C)=O)c3c2=O)cc1 (stereo unspecified)	?	?

# 11 compounds already listed, ordered by SMILES length, high to low.
molecule	LASV entry inh	MARV entry inh
C[C@H](NC(=O)[C@@H](N)Cc1ccc(O)cc1)C(=O)NCC(=O)N[C@H]1CSSC[C@@H](C(=O)O)NC(=O)[C@H](CO)NC(=O)[C@H]([C@@H](C)O)NC(=O)[C@H](Cc2ccccc2)NC(=O)[C@H]([C@@H](C)O)NC(=O)[C@H](CCCCN)NC(=O)[C@H](Cc2c[nH]c3ccccc23)NC(=O)[C@H](Cc2ccccc2)NC(=O)[C@H](Cc2ccccc2)NC(=O)[C@H](CC(N)=O)NC(=O)[C@H](CCCCN)NC1=O	-4%	-4%
CC[C@H](C)[C@H](NC(=O)[C@H](CC(N)=O)NC(=O)[C@H](CCCCN)NC(=O)[C@H](Cc1ccccc1)NC(=O)[C@H](Cc1ccccc1)NC(=O)[C@H](Cc1cnc[nH]1)NC(=O)[C@@H](N)C(C)C)C(=O)N[C@H](C(=O)N[C@H](C(=O)N1CCC[C@H]1C(=O)N[C@@H](CCCN=C(N)N)C(=O)N[C@H](C(=O)N1CCC[C@H]1C(=O)O)[C@@H](C)O)[C@@H](C)O)C(C)C	2%	-7%
O=C1[C@@H]2[C@H]3[C@H](O)[C@H](O)CC(=NOC[C@@H](O)COCc4ccco4)[C@H]3CC[C@H]2C(=O)N1C[C@@H]1CCCO1	-14%[8.59 µM]	4%[8.59 µM]
COc1ccc(-c2coc3ccc(OC4OC(COC(C)=O)C(OC(C)=O)C(OC(C)=O)C4OC(C)=O)c(OC(C)=O)c3c2=O)cc1 (stereo unspecified)	?	?
O=C(c1cccs1)N1C[C@@H](n2cc(C3CC3)nn2)[C@@H](O)C[C@@H]1c1ccccc1	24%	20%
Cc1cnc(C(=O)N2CCOc3ccc(CN4CCCC(C(=O)c5cccnc5)C4)cc3C2)[nH]1 (stereo unspecified)	-5%	-14%
O=C(c1cnn2cccnc12)N1CCOc2ccc(C(O)C(c3ccccc3)c3ccccc3)cc2C1 (stereo unspecified)	?	?
CN(C)CCCn1cc(C2=C(c3c[nH]c4ccccc34)C(=O)NC2=O)c2ccccc21	?	7.1µM*
CC(=O)Nc1ccccc1-c1nc(CNC(=O)c2cccc(F)c2)c(C)o1	-3%	-13%
Cc1cccc(C2=N[C@@H](Cc3ccccc3)CO2)c1	20%	-10%
CCN1CCc2nc(N)oc2CC1	-13%	1%

# New compounds follow
molecule	LASV entry inh	MARV entry inh
COc1ccccc1N1C(=O)[C@@H]2CSCCS(=O)(=O)N2C1=O	1%	15%
CCCCCCCCCCCCCC(=O)O[C@@H]1[C@@H](C)[C@@]2(O)[C@H](C=C(CO)C[C@]3(O)C(=O)C(C)=C[C@@H]23)[C@@H]2C(C)(C)C12OC(C)=O (stereo partly specified)	?	-19%
CC(C)c1ccc2c(c1O)CCC1C3=C(CC[C@]21C)C(=O)OC3 (stereo partly specified)	-22%	-4%
O=S1(=O)CCSCCN1Cc1ccccc1F	5%	21%
COC(=O)CCCC1=CC2=CC(=O)C(C)(OC(=O)c3cccs3)C(=O)C2=CN1c1ccc(OC)cc1 (stereo unspecified)	-18%[8.59 µM]	?
COc1cccc([C@@H]2Oc3ccc(OC)cc3C(=O)[C@H]2OC(=O)NS(=O)(=O)c2ccc(F)cc2)c1	-4%	35%[activator]
CC(C)N1CCN(C(=O)c2cnn(-c3nccc(-c4ccc5c(c4)OCO5)n3)c2-c2ccco2)CC1	?	?
OC(c1cc(C(F)(F)F)nc2c(C(F)(F)F)cccc12)C1CCCCN1 (stereo unspecified)	?	?
CCSc1nnc(C(C)NC(=O)c2ccc(OC)cc2)n1C (stereo unspecified)	2%	2%
COc1ccc([C@H]2C[C@@H](n3cc(C4CC4)nn3)[C@H](O)CN2C(=O)c2cccs2)cc1	-21%	18%
CN(C)c1ccc(-c2ccc3ncnc(N4CCNCC4)c3c2)cc1	-12%	14%
Cc1ccc(S(=O)(=O)N2CCC(=O)N([C@H](COCc3ccccc3)C(C)C)CC2)cc1	.	-13%
COc1ccc2c(c1)OC(C)CN(CCNC(=O)c1cccc(N3CCNC3=O)c1)C2 (stereo unspecified)	-3%	-15%
C=CCN(CC=C)Cc1cc(=O)oc2cc(C)cc(C)c12	-22%	13%
CC/C=C\C/C=C\C/C=C\C/C=C\C/C=C\CCCC(N)=O	-10%	-19%
CC1=C2C(O)C(=O)OC3CC4C(C)(C)C(=O)C=C[C@]4(C)C(CC1)[C@@]23C (stereo partly specified)	-7%	3%
CN(C)CC(O)Cn1c2ccc(Br)cc2c2cc(Br)ccc21 (stereo unspecified)	22µM*	7.9µM*
COC1=CC2C(=O)C(C(c3ccccc3)C2C)C1(O)c1cccc(OC)c1 (stereo unspecified)	8%[8.59 µM]	15%[8.59 µM]
c1ccc2c(c1)CCCc1cc(NCCN3CCOCC3)nnc1-2	24%[17.8 µM]	5%[17.8 µM]
O=C1C=CC(=O)c2c(O)c(Cl)c(Cl)c(O)c21	7%	-11%
C=C(C)C1Cc2c(ccc(C(=O)O)c2O)O1 (stereo unspecified)	3%	-6%
c1ccc2sc(SSc3nc4ccccc4s3)nc2c1	-10%	2%
CCC(=O)OC1CCC2C3CCC4=CC(=O)CC[C@@]4(C)C3CC[C@]12C (stereo partly specified)	-7%	0%
CC(C)OC(=O)[C@@H]1CC[C@H](C)[C@@H](CCC[C@@H]2CC=C[C@H](CC#N)O2)O1	4%	32%[activator]
O=C(Nc1ccccc1)N[C@H]1C[C@H](C(=O)O)Nc2cc(Cl)cc(Cl)c21	-1%&1%	-1%&2%
OC1CCN(Cc2ccc3c(c2)CN(C/C=C/c2ccco2)CCO3)CC1	-18%	-32%
C=CC[C@@H]1C=C[C@@H](Oc2ccc(OC)cc2)[C@H](COC(=O)c2ccc(Br)cc2)O1	-31%[8.59 µM]	-4%[8.59 µM]
Cc1ccc(C(=O)N(Cc2cc3cc4c(cc3nc2N2CCOCC2)CCC4)CC2CCCO2)cc1 (stereo unspecified)	-18%	-10%
CSCC[C@H](NC(=O)[C@H](CCCNC(=N)N)NC(=O)[C@H](Cc1ccc(O)cc1)NC(=O)[C@@H]1CCCN1C(=O)CNC(=O)[C@H](CCC(=O)O)NC(=O)[C@H](CC(=O)O)NC(=O)[C@H](CCCCN)NC(=O)[C@H](CCCCN)NC(=O)[C@H](CCC(=O)O)NC(=O)[C@H](C)N)C(=O)N[C@@H](CCC(=O)O)C(=O)N[C@@H](Cc1cnc[nH]1)C(=O)N[C@@H](Cc1ccccc1)C(=O)N[C@@H](CCCNC(=N)N)C(=O)N[C@@H](Cc1c[nH]c2ccccc12)C(=O)NCC(=O)N[C@@H](CO)C(=O)N1CCC[C@H]1C(=O)N1CCC[C@H]1C(=O)N[C@@H](CCCCN)C(=O)N[C@@H](CC(=O)O)C(=O)O	4%	0%
ClC1=C(Cl)C2(Cl)C(CBr)CC1(Cl)C2(Cl)Cl (stereo unspecified)	-13%	17%
O=c1cc[nH]c(=S)[nH]1	1%	-1%
c1ncc(CC2CCNCC2)[nH]1	3%&2%	11%&-9%
COCC(=O)Nc1cc(C(=O)N2CCCC(C(N)=O)C2)cc2nc(-c3ccccc3)n(C)c12 (stereo unspecified)	-3%	-18%
CC[C@H](C)C(=O)O[C@H]1C[C@H](O)C=C2C=C[C@H](C)[C@H](CC[C@@H](O)C[C@@H](O)CC(=O)O)[C@H]21	0%	11%
O=C1[C@@H]2[C@H]3CC[C@H](C3)[C@@H]2C(=O)N1CCCCN1CCN(c2ncccn2)CC1	-11%	6%
Cc1ccc(C=CC2=C[C@]3(C)C[C@]2(C)[C@H](c2ccc(C)cc2)CC3=O)cc1	-8%[8.59 µM]	-4%[8.59 µM]
COC(=O)/C=C/c1ccc(C(=O)NCC(=O)N[C@@H](CCC(=O)OC)C(=O)N[C@@H](CC(C)C)C(N)=O)cc1	0%&-6%	2%&4%
O=c1onc2cnc3ccccc3n12	-18%	-27%
CN1CCN(C2CN(Cc3ccc(F)cc3)S(=O)(=O)C2)CC1 (stereo unspecified)	20%	-14%
COCCOC(=O)C1=C(C)NC(C)=C(C(=O)OC(C)C)C1c1cccc([N+](=O)[O-])c1 (stereo unspecified)	?	?
O=C(O)Cc1c(Cl)ccc(Cl)c1Cl	-10%	-1%
CCc1nc(CN2CCOc3ccc(C(O)C4CCCCC4)cc3C2)c(C)[nH]1 (stereo unspecified)	?	13µM*
COc1cccc(CN2C(=O)NC(C)(C3CCN(Cc4cc(Cl)ccc4O)CC3)C2=O)c1OC (stereo unspecified)	-7%	?
Nc1nc2c(nc(Sc3ccc(Cl)cc3)n2C2OC(CO)C(O)C2O)c(=O)[nH]1 (stereo unspecified)	-6%	-4%
COc1cccc2c3c(c(C)nc12)CC(CO)O3 (stereo unspecified)	-6%	-19%
Nc1nonc1-c1nc2cnccc2n1C1CC1	.	?
COC1=C(C(=O)O)N2C(=O)[C@@H](NC(=O)[C@H](N)C3=CCC=CC3)[C@H]2SC1	-7%	2%
COC(=O)c1c(-c2cc(OC)c(OC)c(OC)c2)c2ccnc(OCc3ncccn3)c2c(=O)n1Cc1ccnc(C)c1	-3%	7%
O=C1c2ccccc2C(=O)C1c1ccccc1	-8%[17.8 µM]	8%[17.8 µM]
OC[C@@H](O)C(O)[C@H](O)[C@@H](O)CO (stereo partly specified)	4%	2%
COc1cc2c(cc1OC)C(=O)Cc1ccc3c(c1CN(C)CC2)OCO3	-1%&-11%	-14%&13%
CCCCCCCC(=O)O[C@H](CC(=O)O)C[N+](C)(C)C	-2%	-9%
CC(O)COc1ccccc1 (stereo unspecified)	10%	-6%
COc1ccccc1CNc1nc(-c2ccc(N(C)C)cc2)nc2ccccc12	-3%	40%[activator]
c1cncc(CNc2nc(-c3ccoc3)nc3ccccc23)c1	1%	1%
COc1cc(CC(C)N)cc2c1OCO2 (stereo unspecified)	19%[107 µM]	8%[107 µM]
Cc1ccc(S(=O)(=O)NC(=O)c2ccc(Br)o2)c(C)c1	-1%	-19%
COC(=O)C1=C(C)NC(C)=C([N+](=O)[O-])[C@@H]1c1ccccc1C(F)(F)F	-21%&0%	-19%&-16%
COc1cccc([C@@H]2Oc3ccc(OC)cc3C(=O)[C@H]2OC(=O)N[C@H]2CCCc3ccccc32)c1	2%	-1%
OCCN1CCN(Cc2ccc3c(c2)CN(Cc2cccn2-c2ccccn2)CCO3)CC1	10%	?

# No enrichment for hits (roughly 7.3% active in at least one column).
